NOMO-1 viab = NOMO-1 AML cell viability reduction, primary screen, STK33 inhibitor project, CellTiter-Glo luminescence; NOMO-1 AML viability, 72 h; inhibition, % (test concentration not listed); actives 7.5% (n = 37,000); AID 2330, 2010;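 active = most replicates above 80%; inconclusive = exactly half above 80%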;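 note: wells of about 30 µL received 25 nL stock; 0% = median of vehicle wells and 100% = reference inhibitor level; the first replicate is given; inactives centre near 10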
Active calls of the source: *; ? = inconclusive. Some of the compounds tested; rates above refer to the full screens.

SMILES | NOMO-1 viab
O=C(CCSc1nc2ccccc2s1)Nc1ccccc1Cl | 27
Cc1noc(C)c1S(=O)(=O)Nc1ccc2c(c1)C(=O)N([C@H](C)CO)C[C@H](C)[C@H](CN(C)C(=O)c1ccncc1)OCCCC[C@@H](C)O2 | 4
C[C@@H]1CN([C@H](C)CO)C(=O)c2cccc(NS(=O)(=O)c3ccc(Cl)cc3)c2O[C@H]1CN(C)Cc1ccc(Oc2ccccc2)cc1 | 50
CCOc1ccccc1NC(=O)NCc1cccnc1 | 34
Cc1noc(C)c1S(=O)(=O)Nc1ccc2c(c1)C(=O)N([C@H](C)CO)C[C@H](C)[C@H](CN(C)C)OCCCC[C@@H](C)O2 | -4
C[C@H]1CN([C@@H](C)CO)C(=O)Cc2cc(NC(=O)Nc3ccccc3)ccc2O[C@H]1CN(C)S(=O)(=O)c1cccs1 | 42
CC(C)(C)c1ccc(S(=O)(=O)CCSc2nc3ccccc3o2)cc1 | 18
Cc1ccc(S(=O)(=O)N(C)C[C@H]2Oc3c(NC(=O)c4ccc(-c5nccs5)cc4)cccc3C(=O)N([C@H](C)CO)C[C@H]2C)cc1 | 7
O=C(Oc1ccccc1)C(c1ccccc1)c1ccccc1 | 10
Cc1ccc(S(=O)(=O)N(C)C[C@H]2OCCCC[C@@H](C)Oc3ccc(NC(=O)c4ccncc4)cc3C(=O)N([C@H](C)CO)C[C@@H]2C)cc1 | -5
Cc1noc(C)c1S(=O)(=O)N(C)C[C@@H]1Oc2c(NS(=O)(=O)c3cn(C)cn3)cccc2C(=O)N([C@@H](C)CO)C[C@H]1C | 23
Cc1ccc(S(=O)(=O)Nc2ccc3c(c2)CC(=O)N([C@@H](C)CO)C[C@H](C)[C@@H](CN(C)C(=O)NC2CCCCC2)O3)cc1 | 2
COc1ccc(NC(=O)N(C)C[C@H]2Oc3c(NS(=O)(=O)c4cn(C)cn4)cccc3C(=O)N([C@H](C)CO)C[C@@H]2C)cc1 | 20
COc1ccc(CN(C)C[C@H]2Oc3c(NS(=O)(=O)c4ccccc4)cccc3C(=O)N([C@H](C)CO)C[C@H]2C)cc1 | -11
CN(CC(=O)Nc1ccccc1C(N)=O)S(=O)(=O)c1ccc(Br)cc1 | -19
CCN(CC(=O)Nc1ccc(Br)cc1)S(=O)(=O)c1ccc(Cl)cc1 | 5
C[C@H]1CN([C@@H](C)CO)C(=O)Cc2cc(NC(=O)c3ccncc3)ccc2O[C@@H]1CN(C)C(=O)Nc1ccc(F)cc1 | 16
C[C@H]1CN([C@@H](C)CO)C(=O)c2cccc(NC(=O)C3CCCCC3)c2O[C@H]1CN(C)C(=O)Nc1ccc2c(c1)OCO2 | -2
CCc1ccccc1NC(=O)Cn1nc([N+](=O)[O-])cc1C | 2
C[C@@H]1CN([C@H](C)CO)C(=O)c2cc(NC(=O)Nc3ccc4c(c3)OCO4)ccc2O[C@@H]1CN(C)S(=O)(=O)c1cccs1 | 7
CCc1cccc(C)c1NC(=O)CSc1nnc(C)n1-c1ccc(F)cc1 | 27
CNC(=O)C(C)N(c1cc(C)cc(C)c1)S(C)(=O)=O (stereo unspecified) | 23
CCOc1cc(S(=O)(=O)NC2CC(C)(C)NC(C)(C)C2)ccc1F | -10
CCOC(=O)c1ccccc1NC(=O)COc1ccccc1 | -1
C[C@@H]1CN([C@H](C)CO)C(=O)c2cccc(NS(=O)(=O)c3ccccc3)c2O[C@H]1CN(C)Cc1ccc(Oc2ccccc2)cc1 | 25
Next section
SMILES | NOMO-1 viab
Cc1noc(C)c1NC(=O)Nc1ccc2c(c1)C(=O)N([C@H](C)CO)C[C@H](C)[C@@H](CN(C)Cc1ccc(-c3ccccc3)cc1)O2 | 5
C[C@H](CO)N1C[C@H](C)[C@@H](CN(C)Cc2ccccc2)Oc2ccc(NS(=O)(=O)c3ccc(F)cc3)cc2C1=O | 4
C[C@H](CO)N1C[C@H](C)[C@H](CN(C)C(=O)Nc2ccc(C(F)(F)F)cc2)Oc2ccc(NS(=O)(=O)c3ccc(Cl)cc3)cc2C1=O | 58
O=C(O)CN(c1cc(Cl)cc(Cl)c1)S(=O)(=O)c1ccccc1 | 1
Cc1cc(C)c(C)c(OCC(=O)NCCN2CCOCC2)c1 | -17
COc1ccc(S(=O)(=O)Nc2ccc3c(c2)CC(=O)N([C@@H](C)CO)C[C@H](C)[C@@H](CN(C)S(=O)(=O)c2cn(C)cn2)O3)cc1 | 7
CC1=CC2=NC(C(F)(F)F)(C(F)(F)F)NC(=O)N2C=C1 | -6
CNC[C@H]1Oc2c(NC(=O)c3cc(C)nn3C)cccc2C(=O)N([C@H](C)CO)C[C@@H]1C | 5
C[C@@H]1CN([C@@H](C)CO)C(=O)c2cc(NC(=O)Nc3ccccc3)ccc2O[C@H]1CN(C)C(=O)Nc1ccc(C(F)(F)F)cc1 | 20
Cc1ccc(-c2noc(CSc3nnc(-c4ccncc4)n3-c3ccc(C)cc3)n2)cc1 | -3
COc1cccc2c(C)nc(Nc3nc(CSc4nnc(C)s4)cc(=O)[nH]3)nc12 | 17
COC(=O)c1cc(OC)c(OC)cc1NC(=O)CN1C(=O)c2ccccc2C1=O | 1
Cc1ccc(S(=O)(=O)Nc2ccc3c(c2)C(=O)N([C@H](C)CO)C[C@@H](C)[C@@H](CN(C)S(=O)(=O)c2ccccc2)O3)cc1 | 18
CCn1c(SCC(=O)c2ccc(OC)cc2)nnc1-c1ccc(Cl)cc1Cl | -7
COc1ccc(-c2nnc(SCC(=O)n3c4c(c5c3CCCC5)CCCC4)n2C)cc1 | ?
C[C@H](CO)N1C[C@H](C)[C@@H](CN(C)S(=O)(=O)c2ccccc2)Oc2c(NC(=O)c3cnccn3)cccc2C1=O | 19
C[C@@H]1CN([C@H](C)CO)C(=O)c2cc(NS(=O)(=O)c3ccc(F)cc3)ccc2O[C@H]1CN(C)CC1CCCCC1 | 42
Cc1ccc2nc(-c3ccc(NC(=O)CS(=O)(=O)Cc4ccccc4)cc3)sc2c1 | 10
C[C@H]1CN([C@@H](C)CO)C(=O)c2cc(NC(=O)Nc3ccccc3)ccc2O[C@H]1CN(C)S(C)(=O)=O | 16
CCOC(=O)C(C)Oc1cc(O)c2c(=O)cc(-c3ccccc3)oc2c1 (stereo unspecified) | 70
Cc1noc(C)c1S(=O)(=O)N(C)C[C@H]1OCCCC[C@@H](C)Oc2ccc(NS(=O)(=O)c3cccs3)cc2C(=O)N([C@H](C)CO)C[C@@H]1C | 20
OC(c1ccccc1)c1oc2ccccc2c1-c1cnn(-c2ccccc2)c1 (stereo unspecified) | 112*
C[C@H]1CN([C@@H](C)CO)C(=O)Cc2cc(NC(=O)Nc3ccc4c(c3)OCO4)ccc2O[C@H]1CN(C)C(=O)Nc1ccc2c(c1)OCO2 | -1
CC(C)CC(NC(=O)Cc1ccsc1)C(=O)NN (stereo unspecified) | 22
C[C@@H]1CN([C@H](C)CO)C(=O)Cc2cc(N(C)C)ccc2O[C@@H]1CN(C)C(=O)Nc1ccc(F)cc1 | -1
New compounds follow:
SMILES | NOMO-1 viab
CC(C)NS(=O)(=O)c1ccc(OCC(N)=O)cc1 | 14
Cc1ccc(S(=O)(=O)Nc2ccc3c(c2)CC(=O)N([C@@H](C)CO)C[C@H](C)[C@@H](CN(C)Cc2ccc(C(=O)O)cc2)O3)cc1 | -4
COc1ccc(NC(=O)N(C)C[C@H]2Oc3ccc(N(C)C)cc3CC(=O)N([C@H](C)CO)C[C@H]2C)cc1 | -4
C[C@@H]1CCCCO[C@H](CN(C)C(=O)NC2CCCCC2)[C@@H](C)CN([C@H](C)CO)C(=O)c2cc(NC(=O)Nc3ccccc3)ccc2O1 | 24
CC(=O)Nc1ccc(NC(=O)CSC2=NC(c3ccccc3)CC(=O)N2)cc1 (stereo unspecified) | -1
C[C@H](CO)N1C[C@H](C)[C@@H](CN(C)Cc2ccc(C(=O)O)cc2)Oc2ccc(NS(=O)(=O)c3ccc(F)cc3)cc2C1=O | 20
C[C@H](CO)N1C[C@H](C)[C@H](CN(C)C(=O)Nc2ccc(F)cc2)Oc2ccc(NC(=O)Nc3ccc(F)cc3)cc2CC1=O | 25
C[C@H](CO)N1C[C@H](C)[C@H](CN(C)S(=O)(=O)c2ccc(Cl)cc2)Oc2ccc(NC(=O)Nc3ccccc3)cc2CC1=O | 111*
COc1ccc(S(=O)(=O)N(C)C[C@H]2Oc3ccc(NC(=O)C4CCCCC4)cc3CC(=O)N([C@H](C)CO)C[C@H]2C)cc1 | -2
Cc1cc(C(=O)Nc2cccc3c2O[C@@H](CN(C)S(C)(=O)=O)[C@@H](C)CN([C@H](C)CO)C3=O)n(C)n1 | 10
C[C@@H]1CN([C@@H](C)CO)C(=O)c2cccc(NS(C)(=O)=O)c2O[C@H]1CN(C)C | 1
CNC[C@@H]1Oc2ccc(NC(=O)Nc3ccc(C(F)(F)F)cc3)cc2CC(=O)N([C@H](C)CO)C[C@H]1C | -20
Cc1ccc(NC(=O)CSc2ncccn2)cc1Cl | -6
C[C@H]1CN([C@@H](C)CO)C(=O)c2cc(NC(=O)c3ccncc3)ccc2O[C@H]1CN(C)C(=O)Nc1ccc(F)cc1 | 4
C[C@@H]1CN([C@H](C)CO)C(=O)Cc2cc(NS(=O)(=O)c3ccc(Cl)cc3)ccc2O[C@H]1CN(C)Cc1ccc(C(=O)Nc2ccccc2N)cc1 | 62
O=C(NC(=S)Nc1ccccc1Cl)c1cnn2c(C(F)(F)F)cc(C(F)(F)F)nc12 | 11
CCNC(=O)c1c(NC(=O)COc2cccc3ccccc23)sc2c1CCCC2 | 6
C[C@@H]1CCCCO[C@H](CN(C)S(C)(=O)=O)[C@@H](C)CN([C@H](C)CO)C(=O)c2cc(NS(=O)(=O)c3cccs3)ccc2O1 | -38
COc1ccc(NC(=O)N(C)C[C@@H]2Oc3c(NC(=O)Nc4ccc(F)cc4)cccc3C(=O)N([C@H](C)CO)C[C@H]2C)cc1 | 4
C[C@@H]1OC(OC[C@H]2O[C@@H](Oc3cc(O)c4c(=O)cc(-c5ccc(O)c(O)c5)oc4c3)[C@H](O)[C@@H](O)[C@@H]2O)[C@H](O)[C@H](O)[C@H]1O (stereo partly specified) | -5
C[C@@H]1CN([C@H](C)CO)C(=O)c2cccc(NC(=O)Nc3ccc(C(F)(F)F)cc3)c2O[C@@H]1CN(C)Cc1ccc(C(F)(F)F)cc1 | 111*
Cc1noc(C)c1NC(=O)Nc1cccc2c1O[C@H](CN(C)S(=O)(=O)c1ccc(Cl)cc1)[C@H](C)CN([C@@H](C)CO)C2=O | 6
CSc1ncnc2nc[nH]c12 | -25
C[C@H]1CN([C@@H](C)CO)C(=O)c2cccc(NS(=O)(=O)c3ccc(Cl)cc3)c2O[C@@H]1CN(C)S(=O)(=O)c1ccc(F)cc1 | 11
Cc1cc(NS(=O)(=O)c2ccc(NC(=O)c3csc4ccccc34)cc2)no1 | -11
Carrying on.
SMILES | NOMO-1 viab
C[C@@H]1CN([C@H](C)CO)C(=O)Cc2cc(NC(=O)Cc3ccccc3)ccc2O[C@@H]1CN(C)Cc1ccc(Cl)c(Cl)c1 | 127*
O=C(Nc1cccc(NC(=O)c2ncn[nH]2)c1)c1cccc(Cl)c1 | 32
COc1ccc(C)cc1N(CC(=O)Nc1ccc(Br)cc1F)S(C)(=O)=O | 2
Cc1noc(C)c1NC(=O)N(C)C[C@@H]1Oc2ccc(NC(=O)Nc3ccc4c(c3)OCO4)cc2C(=O)N([C@H](C)CO)C[C@@H]1C | -7
COc1ccc(NC(=O)Nc2cccc3c2O[C@@H](CN(C)Cc2ccc(Oc4ccccc4)cc2)[C@H](C)CN([C@H](C)CO)C3=O)cc1 | 24
Cc1cc2nc(-c3ccc(C)c(NC(=O)COc4ccc([N+](=O)[O-])cc4)c3)oc2cc1C | 94*
O=C(CSc1nnc(-c2cccnc2)n1-c1ccccc1)Nc1ccc2c(c1)OCCO2 | 0
C=C(C(=O)O[C@H]1C/C=C(/C)C[C@H](O)[C@H]2[C@H](C)C(=O)O[C@@H]2/C=C\1C)[C@@H]1CCC(=C)[C@@H]2C[C@H](O[C@@H]3O[C@H](COC(=O)CC(=O)O)[C@@H](O)[C@H](O)[C@H]3O)C(=C)[C@@H]2C1 | 105*
COc1ccc(S(=O)(=O)N(C)C[C@H]2Oc3ccc(NC(=O)Nc4c(C)noc4C)cc3CC(=O)N([C@@H](C)CO)C[C@H]2C)cc1 | 2
COc1ccc(OC)c(NC(=O)c2ccccc2N(C)S(=O)(=O)c2ccc(C)cc2)c1 | 3
C[C@H]1CN([C@@H](C)CO)C(=O)c2cccc(NC(=O)Nc3cccc4ccccc34)c2O[C@@H]1CN(C)S(=O)(=O)c1ccccc1 | 24

Part of the list above, set out differently:
| Compound | NOMO-1 viab |
| --- | --- |
| O=C(Nc1cccc(NC(=O)c2ncn[nH]2)c1)c1cccc(Cl)c1 | 32 |
| COc1ccc(C)cc1N(CC(=O)Nc1ccc(Br)cc1F)S(C)(=O)=O | 2 |
| Cc1noc(C)c1NC(=O)N(C)C[C@@H]1Oc2ccc(NC(=O)Nc3ccc4c(c3)OCO4)cc2C(=O)N([C@H](C)CO)C[C@@H]1C | -7 |
| COc1ccc(NC(=O)Nc2cccc3c2O[C@@H](CN(C)Cc2ccc(Oc4ccccc4)cc2)[C@H](C)CN([C@H](C)CO)C3=O)cc1 | 24 |
| Cc1cc2nc(-c3ccc(C)c(NC(=O)COc4ccc([N+](=O)[O-])cc4)c3)oc2cc1C | 94* |
| O=C(CSc1nnc(-c2cccnc2)n1-c1ccccc1)Nc1ccc2c(c1)OCCO2 | 0 |
| C=C(C(=O)O[C@H]1C/C=C(/C)C[C@H](O)[C@H]2[C@H](C)C(=O)O[C@@H]2/C=C\1C)[C@@H]1CCC(=C)[C@@H]2C[C@H](O[C@@H]3O[C@H](COC(=O)CC(=O)O)[C@@H](O)[C@H](O)[C@H]3O)C(=C)[C@@H]2C1 | 105* |
| COc1ccc(S(=O)(=O)N(C)C[C@H]2Oc3ccc(NC(=O)Nc4c(C)noc4C)cc3CC(=O)N([C@@H](C)CO)C[C@H]2C)cc1 | 2 |
| COc1ccc(OC)c(NC(=O)c2ccccc2N(C)S(=O)(=O)c2ccc(C)cc2)c1 | 3 |
| C[C@H]1CN([C@@H](C)CO)C(=O)c2cccc(NC(=O)Nc3cccc4ccccc34)c2O[C@@H]1CN(C)S(=O)(=O)c1ccccc1 | 24 |

Screens deposited in PubChem BioAssay by Broad Institute.
